Screening data deposited in PubChem BioAssay by National Center for Advancing Translational Sciences (NCATS).
Vaccinia Venus: inhibitors of vaccinia virus (Venus reporter); Vaccinia virus Venus reporter expression, fluorescence; Potency, µM (highest dose often 36.5 µM), inactives show at the top dose activity change, negative = inhibition, actives largely listed as inhibitors; actives 0.46% (n = 330,000); AID 720580; active means well fitted inhibition curve with a large enough effect; inconclusive means small, poorly fitted or top-dose-only effect; inactive means no such curve, though single readings can be large or run the other way; tested in A549 cells; note: nearly all actives have a fitted effect of over 30% in size; inactives centre near -10
VACV mCherry inh: vaccinia inhibition (mCherry reporter). AID 720579. Vaccinia virus mCherry reporter infection, fluorescence; about a quarter of the inactives have no number. Potency, µM (doses to about 36.5 µM), for inactives: top-dose activity change, negative = inhibition, most hits filed as inhibitors. actives 0.63% (n = 310,000); active = well fitted inhibition curve with a large enough effect; inconclusive = small, poorly fitted or top-dose-only effect; inactive = no such curve, though single readings can be large or run the other way; tested in A549 cells; note: nearly all actives have a fitted effect of over 35% in size; inactives centre near -10
Active calls of the source: *; i = inactive; ? = inconclusive; nt = no result given; & = joins results of further samples; [ ] = remark or other dose. % is set by controls: 0 for no effect and ±100 for the full control effect; potency is the fitted concentration of half-maximal effect.

molecule	Vaccinia Venus	VACV mCherry inh
CCNC(=O)C1CCCN(C(=O)c2ccc(C(=O)OC)cc2)CC1 (configuration not stated)	10.0%	17.2%
O=C(NCCc1ccc(Cl)cc1)c1ccc(Cn2c(=O)[nH]c3ccccc3c2=O)cc1	?	-2.7%
COc1ccc(/C=N/NC(=S)N[C@H]2CC3CCC2C3)cc1 (some centres not stated)	-2.2%	-6.6%
COc1c2occc2cc2ccc(=O)oc12	41.0%&-2.4%[activator]	65.3%&-9.3%[activator]
O=C(CCNC(=O)c1ccco1)Nc1ccc(OC(F)(F)F)cc1	-8.7%	-0.7%
CN(C)c1ccc(/C=C/c2nc3ccccc3c(=O)n2-c2ccc(C(=O)O)cc2)cc1	51.1%[activator]	-2.8%
CC(/C=C/c1ccco1)=N\NC(=O)c1cc(Cl)ccc1O	-1.2%	-14.5%
Cc1nc(C)c(Oc2cccc(C(F)(F)F)c2)c(=O)[nH]1	-5.3%[7.34 µM]	-1.8%[7.34 µM]
N#CC1=C(N)NC(=S)C(C(N)=O)C1c1ccccc1F (configuration not stated)	-1.7%	?
C(=C\c1nc2ccccc2s1)/c1ccc2c(c1)OCO2	-21.5%	?
COc1ccccc1NC(=O)CSc1nc(-c2cccc(Cl)c2)nc2c1Cc1c(CO)cnc(C)c1O2	-10.6%	-8.2%
S=c1nc[nH]c2c1ncn2-c1ccccc1	-5.1%	i
Cc1cc2oc(C(=O)Nc3sc4c(c3C(=O)NCC3CCCO3)CCC4)cc(=O)c2cc1C (configuration not stated)	-12.7%	-2.7%
Cc1cc(C)c(C)c(S(=O)(=O)NCC(=O)NCC2CCCCC2)c1C	-3.0%	?
O=C(COc1ccc(S(=O)(=O)N2CCOCC2)cc1Cl)NCc1ccc2c(c1)OCO2	-16.2%	?
Cc1ccc(/C=c2\sc3n(c2=O)CN(c2cccc(Br)c2)CN=3)o1	-4.6%	-15.4%
CCOC(=O)C1=C(CBr)NC(=O)NC1C (configuration not stated)	0.3%	-11.2%
CCN1C(=O)C(O)(c2c[nH]c3ccccc23)c2cc(Br)ccc21 (configuration not stated)	-3.2%	4.6%
COC[C@H]([C@@H](O)[C@@H](O)C(=O)NCC[C@@H](C)c1nc(/C=C/C[C@H]2OC3(C[C@H](O)[C@H]2C)OC([C@@H](C[C@@H](O)[C@@H](C)[C@@H](O)[C@@H](C)/C=C(C)/C(C)=C/C=C/C(C)=C\C#N)OC)[C@@H](OP(=O)(O)O)C3(C)C)co1)N(C)C (some centres not stated)	-29.3%[2.01 µM]	-17.5%[2.01 µM]
Cc1[nH]c(=O)[nH]c(=O)c1Sc1ccccc1[N+](=O)[O-]	-5.3%	i
CC1(C(=O)NCC2CCCCC2)CCN1C(=O)Cc1ccc(-c2ccccc2)cc1 (configuration not stated)	-11.7%	10.8%
O=C(c1ccccc1NS(=O)(=O)c1ccc(F)cc1F)N1CCCCC1	1.2%	-1.9%
O=C(COc1ccccc1)NCC(=O)NC1CCCCC1	-7.3%	0.0%
O=C(NCCc1ccccc1)C1CCN(S(=O)(=O)c2cccc3nonc23)CC1	-4.3%	nt
O=c1[nH]c2ccc(Br)cc2c(-c2ccccc2)c1CN1CCOCC1	?	?
CCOC(=O)c1cc(-c2cccnc2)nn1-c1ccccc1C	-2.2%	-14.4%
CCOC(=O)C(=CNc1cc(C)nn1-c1ccc(Cl)cc1)C(=O)OCC	-1.8%	-11.7%
O=S(=O)(NCC1(N2CCOCC2)CCCCC1)c1ccccc1Cl	-16.7%	i
C[C@@H](C(=O)NCCc1ccc(F)cc1)N1C(=O)N2CCc3c([nH]c4ccccc34)[C@@]2(C)C1=O	-23.3%	-23.6%
CC(C)CC(c1nnnn1Cc1ccccc1)N1CCN(C(=O)c2ccco2)CC1 (configuration not stated)	?	nt
O=C(NCCc1cn2cccnc2n1)C1CCC(=O)N(Cc2ccccc2F)C1 (configuration not stated)	-28.2%	i
CCOCCCNC(=O)c1ccc2c(c1)ncn2-c1ccccc1OC	-16.6%	i
COc1ccc(CNC(=O)CN(c2ccc(OC)c(Cl)c2)S(=O)(=O)c2ccc(C)cc2)cc1	?	-17.4%
O=C(O)CSc1nnc(COc2cccc3ccccc23)o1	-1.2%	-14.8%
O=C1Cc2cc([N+](=O)[O-])ccc2N1c1c(Cl)cccc1Cl	-5.1%	i
O=C(CN1C(=O)c2ccccc2C1=O)NCCc1c[nH]c2ccccc12	0.0%	-8.7%
O=c1cc(-c2ccccc2)[nH][nH]1	-13.2%	-26.3%
Cc1cc(N2C(=O)C3C4C=CC(C4)C3C2=O)no1 (configuration not stated)	0.8%	4.5%
O=Cc1ccc(N2CCCC2)c([N+](=O)[O-])c1	2.0%	-1.7%
COc1cccc(NC(=O)NNC(=O)C(C)Oc2ccc3ccccc3c2)c1 (configuration not stated)	-11.5%	-28.1%
CCc1nc2ccc(C(=O)N3CCN(S(=O)(=O)CC)CC3)cn2c1N(CCC(C)C)CCN(C)C	-10.8%	23.3%
Cn1c(=O)c([N+](=O)[O-])c(N2CCSCC2)c2ccccc21	-22.2%	?
Brc1ccc(-c2nnc3sc(CNCc4ccc5c(c4)OCO5)cn23)cc1	-14.2%	-10.4%
CC(C)(C)OC(=O)N1CCC(c2c(C(=O)N3CCN(c4cccc(Cl)c4)CC3)cnn2-c2cccc(Cl)c2)CC1	-17.3%	-24.4%
CC(N)C(O)c1ccc(O)c(O)c1 (configuration not stated)	?	-10.6%
COC(=O)CN1C(=O)[C@H]2[C@@H](C3CC3)N3C(=O)CN(CCO)C(=O)[C@@]3(Cc3ccccc3)[C@H]2C1=O	-10.4%	i
Cc1ccsc1C(=O)Nc1ccccc1N1CCCC1	-9.3%	-0.4%
CCN(CC)S(=O)(=O)c1ccc(-c2nnc(SCc3nnc(-c4ccccc4)o3)o2)cc1	0.0355µM*	?
C[C@@H]1CCCCO[C@H](CN(C)S(=O)(=O)c2cccs2)[C@@H](C)CN([C@H](C)CO)C(=O)c2cc(NC(=O)C3CCCCC3)ccc2O1	-16.2%	i
COc1ccc(C)cc1NC(=O)c1ccc(NC(=O)CC2SC(N3CCCC3)=NC2=O)cc1 (configuration not stated)	1.7%	-11.1%

Continuation.
molecule	Vaccinia Venus	VACV mCherry inh
CCOc1ccccc1C(=O)NCC(=O)N1CCC(C)CC1	-9.7%	-13.6%
c1ccc(-c2cn(-c3ccccc3)c3[n+]2CCS3)cc1	-14.6%	i
CCC(C)NC(=O)C1c2ccccc2Oc2ccccc21 (configuration not stated)	3.3%	i
NC(=O)C1CCN(Cc2nnnn2Cc2ccco2)CC1	0.0%	-7.4%
N#CC(=C1SC=CS1)c1nc(-c2ccccc2)cs1	-14.7%	-19.1%
C=CCn1c(SCc2cc(=O)n3ccsc3n2)nc2cc(Cl)ccc2c1=O	1.0%	1.8%
CCCNC(=O)C1CC(=O)N(c2ccc(OCc3ccc(Cl)cc3)cc2)C1 (configuration not stated)	?	-4.1%
O=C1CC(N2CC2)C(=O)N1c1ccccc1 (configuration not stated)	-2.3%	i
CCOC(=O)[C@]12CCC=C1N(Cc1cccc3ccccc13)C(=O)[C@H](CC(=O)NCCCCc1ccccc1)C2	-19.7%	-24.0%
Cc1oc2c(O)c(O)ccc2c(=O)c1-c1ccc(Cl)cc1	-28.1%	?
COc1cccc(NC2c3ccccc3C(=O)N2Cc2ccccc2Cl)c1 (configuration not stated)	-16.5%	-13.6%
O=C(O)CC1CC(O)CCC1=O (configuration not stated)	0.4%	14.8%
COc1cc2c(cc1OC)C(Nn1cnnc1)=NC1(CCCC1)C2	-15.5%[7.34 µM]	-4.1%[7.34 µM]
COc1ccccc1S(=O)(=O)Cc1ccc(C(=O)NC2CCCCCC2)o1	-2.3%	-6.0%
CC(C)CCNC(=O)COc1cccc2c1OC(C)(C)C2	-5.9%	-16.8%
O=C(NCCOCCn1c(=O)oc2ccccc21)Nc1cccc(Cl)c1	11.4%	13.4%
CSCC[C@H](NC(=O)OC(C)(C)C)c1nnc(SCC(=O)Nc2c(C)cccc2C)o1	-8.6%	nt
Cc1c(C(=O)O)nn(-c2ccccc2)c(=O)c1C#N	-7.5%	-1.8%
O=S(=O)(CC(CN1CCCCC1)N1CCCCC1)c1ccc2ccccc2c1 (configuration not stated)	?	?
COCCNc1cnn(-c2ccccc2)c(=O)c1Cl	-0.3%	-12.4%
CN1C(=O)/C(=C2\SC(=S)N(C(CCC(=O)O)C(=O)O)C2=O)c2ccccc21 (configuration not stated)	-2.5%	-7.2%
CCN(CC)CCNc1nc(-c2ccccc2)c2c(c1C#N)CC(C)(C)OC2	-15.1%	nt
CSc1nnc2ccc(-c3cccs3)nn12	-16.9%	i
Cc1nc2ccccc2nc1-c1csc(-c2ccccc2)n1	-17.0%	-19.8%
O=C(OCc1nnc(-c2ccccc2)o1)c1cc2ccccc2cc1O	-7.7%	i
CCN(C[C@H]1N[C@@](CC)(C(=O)OC)[C@H]2C(=O)N(C)C(=O)[C@@H]12)S(=O)(=O)c1ccc(-c2ccccc2)cc1	0.0%	-23.7%
O=C1C(=O)N(C2CCN(C(=O)c3ccc(F)cc3)CC2)CCN1Cc1ccc(F)cc1	6.4%	-0.7%
C[C@@H](CN1CCC[C@H]1CN1C(N)=NC[C@@H]1Cc1ccccc1)N1C[C@@H](Cc2ccccc2)N(CCc2ccc(Cl)c(Cl)c2)C1=N	-8.2%	-9.7%
COc1ccc(S(=O)(=O)N(C)C)cc1NC(=O)Cc1cccs1	-21.1%	-11.1%
COC(=O)c1nn(C23CC4CC(CC(C4)C2)C3)c2c1C(=O)N(c1ccc(Br)cc1)C2=O	-7.3%	i
COc1cc2c(cc1OC)C(c1ccc(-c3ccc(Cl)c(Cl)c3)o1)=NCC2	?	-22.1%
Cc1ccc(-n2[nH]c(C)c(/C=N/Nc3ccc([N+](=O)[O-])cc3[N+](=O)[O-])c2=O)cc1	-13.4%	-17.6%
Cc1cccc(/C=C/c2onc(C)c2S(=O)(=O)N2CCC(C(=O)N3CCCCC3)CC2)c1	-14.3%	-29.2%
O=S(=O)(Nc1cccc(-c2nc3cccnc3s2)c1)c1ccc2c(c1)CCCC2	-21.7%	i
CC(=O)Nc1ccc(S(=O)(=O)Nc2nnc(C)s2)cc1	-4.9%	i
Cc1ccc(C(=O)COC(=O)c2cccc(NC(=O)c3ccc(Cl)cc3Cl)c2)cc1	-19.9%	-24.8%
COCCN1Cc2cccc(C(=O)NCC3CCN(CC(C)C)C3)c2C1=O (configuration not stated)	-8.4%	i
CCOC(=O)C1CCN(C(c2ccc(OCC)cc2)c2c(O)cc(C)n(CCOC)c2=O)CC1 (configuration not stated)	-4.9%	-13.6%
Cc1cccc(N(C)C(=O)CCS(=O)(=O)c2ccc3c(c2)n(C)c(=O)c(=O)n3C)c1	-2.3%	-5.5%
CC1C=CC(C)C(C(=O)c2ccccc2)C1C(=O)c1ccccc1 (configuration not stated)	-5.4%	i
COc1ccc(NC(=S)NCCCn2ccnc2)cc1	-11.8%	i
N#Cc1c(SCc2ccccc2)nc(N2CCOCC2)c2c1CCCC2	-17.7%	nt
CCOc1ccc(C(=O)C(C)OC(=O)Cn2[nH]c(=O)c3ccccc3c2=O)cc1 (configuration not stated)	-15.2%	-12.7%
COc1ccc(C2C(=O)c3ccccc3C2=O)cc1	-14.2%&-5.3%	-18.0%
CC(=O)c1ccc(NC(=O)NC2CCCCCCC2)cc1	-12.6%	i
O=C(CSc1nccn(-c2ccc(Br)cc2)c1=O)NC1CCCC1	-3.2%	-13.6%
CC(=O)c1ccc(N2CCN(C(=O)C3CCCN(c4ncnc5c4nc4n5CCCCC4)C3)CC2)cc1 (configuration not stated)	-5.3%	-10.2%
C=CCn1c(SCC(=C)C)nc2c1c(=O)[nH]c(=O)n2C	-5.2%	12.6%
NNC(=O)C12CC3CC(C1)CC(n1ncnn1)(C3)C2	-0.6%	-17.2%
COc1ccc(CC(=O)NCc2nc3cccnc3n2Cc2ccc(F)cc2)cc1OC	-15.8%	-21.1%

(list continues)
molecule	Vaccinia Venus	VACV mCherry inh
COc1ccccc1-c1cccc2nccn12	-2.2%	34.0%[activator]
Cc1cc(NCCc2ccccc2F)n2ncnc2n1	-3.8%	i
CCCCN(C(=O)/C=C/c1ccco1)c1c(N)n(CCC)c(=O)[nH]c1=O	-11.9%	i
COc1cc(Cn2c3ccc(NC(=O)CCc4ccc(O)cc4)cc3c(=O)n2C)ccc1F	-6.3%	13.7%
Oc1ccc(/C=N/NC(=S)NCC2CCCO2)cc1 (configuration not stated)	-9.8%	-14.0%
COc1cc(NS(=O)(=O)c2ccc(Nc3nc(-c4ccccn4)cs3)cc2)nc(OC)n1	6.2%	-4.6%
C=CCN1/C(=C(\C#N)C2=NS(=O)(=O)c3ccccc32)N(C)c2ccccc21	-16.5%	-7.3%

An excerpt of the results above:
molecule	Vaccinia Venus	VACV mCherry inh
Cc1cc(NCCc2ccccc2F)n2ncnc2n1	-3.8%	i
CCCCN(C(=O)/C=C/c1ccco1)c1c(N)n(CCC)c(=O)[nH]c1=O	-11.9%	i
COc1cc(Cn2c3ccc(NC(=O)CCc4ccc(O)cc4)cc3c(=O)n2C)ccc1F	-6.3%	13.7%
